GALR2 ag: activates the human galanin receptor 2; O43603; GALR2-expressing cells, agonist activation read-out; activation, %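 (tested at 5 µM)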; 140,000 tested, 0.48% active; AID 803;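 active = above mean plus 3 SD of all compounds, about 5% in these data, not always enough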;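 also: 0% = vehicle buffer wells and 100% = reference agonist at full effect; tested in CHO reporter cells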
Target sequence (O43603 whole entry, looked up): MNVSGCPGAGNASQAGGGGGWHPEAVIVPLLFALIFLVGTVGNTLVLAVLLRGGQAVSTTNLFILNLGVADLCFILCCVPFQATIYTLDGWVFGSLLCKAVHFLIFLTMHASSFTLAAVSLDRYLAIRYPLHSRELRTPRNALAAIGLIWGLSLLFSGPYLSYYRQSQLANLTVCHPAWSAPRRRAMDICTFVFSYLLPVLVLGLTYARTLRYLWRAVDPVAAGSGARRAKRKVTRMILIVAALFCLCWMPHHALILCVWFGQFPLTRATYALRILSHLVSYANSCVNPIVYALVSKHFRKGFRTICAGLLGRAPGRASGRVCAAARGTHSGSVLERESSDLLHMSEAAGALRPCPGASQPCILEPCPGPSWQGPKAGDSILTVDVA
RGS16-Gao: regulators of human RGS16-Galphao interaction. O15492+P09471. bead-based flow cytometry RGS16-Galphao binding, fluorescence; actives lie on both sides. binding response (% of control), % at 10 µM. 220,000 tested, 0.38% active. AID 1441;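 active = below 25% or above 175%, edge rows of some plates excepted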;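 also: Galphao activated by GDP with aluminum fluoride before binding; 100% = wells without compound and 0% = beads without RGS; some results beyond the cut were filed as inactive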
Target sequence (O15492 whole entry, looked up): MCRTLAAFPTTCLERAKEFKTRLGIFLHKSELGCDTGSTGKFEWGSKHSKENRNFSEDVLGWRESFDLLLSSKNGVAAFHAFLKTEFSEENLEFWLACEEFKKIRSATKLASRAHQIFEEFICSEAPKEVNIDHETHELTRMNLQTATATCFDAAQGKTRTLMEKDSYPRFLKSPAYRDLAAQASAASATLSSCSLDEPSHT
Target sequence (P09471 whole entry, looked up): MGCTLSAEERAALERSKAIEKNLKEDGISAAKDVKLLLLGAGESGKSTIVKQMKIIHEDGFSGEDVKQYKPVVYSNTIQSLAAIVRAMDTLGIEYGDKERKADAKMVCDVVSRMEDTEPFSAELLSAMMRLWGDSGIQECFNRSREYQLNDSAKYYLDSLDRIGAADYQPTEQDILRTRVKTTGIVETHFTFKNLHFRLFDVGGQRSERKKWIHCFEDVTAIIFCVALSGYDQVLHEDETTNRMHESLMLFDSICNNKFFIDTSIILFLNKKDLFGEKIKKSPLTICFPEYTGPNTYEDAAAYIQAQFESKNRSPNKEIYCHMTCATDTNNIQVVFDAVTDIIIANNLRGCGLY
Insulin prom inh: TRM-6 insulin promoter activity inhibition; inhibition, % at 2 µM; 130,000 tested, 0.9% active; TRM-6 cells (human fetal islet line), insulin promoter-eGFP reporter, imaging; reporter expression induced with tamoxifen;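 active = inhibition above the mean plus 3 SD, with well images judged a real hit on visual review, cut at about 60% in these data, passing the limit was not always enough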
PKD1 inh: PKD1 (human) kinase inhibition; PKD1 kinase fluorescence polarization assay; inhibition, %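 (about 10 µM by stock and volumes)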; 200,000 tested, 0.056% active;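 active = inhibition of 50% or more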;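 also: controls were vehicle for no effect and a reference inhibitor for full effect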
HSV replic up: increases HSV replication in cells; HSV replication augmentation in cells, fold increase; maximum fold increase; 220,000 tested, 0.005% active; AID 1956;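 active = peak rise of 1.5-fold or more in the series; tested in PC3 cells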;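 also: first round at 10 µM; read as green reporter fluorescence; hits show the peak of a series up to 25 µM; 1 = signal of infected wells without compound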
Insulin prom inh cell count: also measured in Insulin prom inh; calls as there; normalized cell count, %; measured here: cell count, toxicity; reference of the scale not given here;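 cells exposed to compound for 48 h; stained nuclei by imaging scaled within each plate; lower means fewer cells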
HSV replic up primary fold: second read-out of HSV replic up, no call of its own (marks repeat the call); fold increase; compound at 10 µM; measured here: primary screen fold increase 10 uM; tested in PC3 cells;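 GFP signal in the first replicate; 1 = infected wells without compound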
Numbers without * were called inactive; i = inactive; · = no result given.

Structure	HSV replic up primary fold	RGS16-Gao	Insulin prom inh	Insulin prom inh cell count	PKD1 inh	GALR2 ag	HSV replic up
Cc1nc(NC2=NCN(C3CCCCC3C)CN2)nc2ccccc12 (configuration not stated)	0.93	94	-120	74	-2	-1.0	i
CCOc1ccc(C(=O)N/N=C(/C)C2C(=O)c3ccccc3C2=O)cc1	0.95	103	·	·	2	-1.1	i
CCOC(=O)C1=C(O)/C(=C/c2ccc(C)o2)SC1=NC(=O)c1ccccc1C	·	·	-48	108	-4	0.1	·
O=C(CSc1nnc(-c2ccccc2)n1Cc1ccco1)NCc1ccc2c(c1)OCO2	0.94	109	-41	87	-4	-2.4	i
COc1ccc(OC)c(C2NC(=S)NC3=C2N2CCC3CC2)c1 (configuration not stated)	0.96	98	·	·	4	·	i
CCOC(=O)c1ccc(S(=O)(=O)NNC(=O)c2ccc3c(c2)nc(C)n3CC)cc1	0.97	97	·	·	0	·	i
COc1ccc(N=CC2=C(Nc3ccc(OC)cc3)c3c(C)nn(-c4ccccn4)c3CC2)cc1	·	·	26	118	-3	-1.9	·
Cc1cc(=O)[nH]c(SCC(=O)Nc2ccc(C)c(S(=O)(=O)N3CCCCC3)c2)n1	0.94	99	·	·	·	·	i
COCC(C)NC(C(=O)Nc1cccc(C(C)=O)c1)c1ccccc1 (configuration not stated)	0.92	103	·	·	-6	·	i
Clc1ccc(-c2nc3ccccn3c2CN2CCCCC2)cc1	0.97	97	0	114	3	·	i
COc1cc(NC(=O)Cc2ccccc2)cc(OC)c1	0.98	102	·	·	-7	-0.1	i
CC(C)n1nc(C(=O)OCC(=O)c2c[nH]c3ccccc23)c2ccccc2c1=O	1	·	0	24	2	1.2	i
O=C(COC(=O)c1cnccn1)NCCc1ccccc1	1.1	77	46	140	7	-0.2	i
CCS(=O)(=O)c1ccc2c(c1)N(S(C)(=O)=O)CC(C(=O)NN)O2 (configuration not stated)	0.81	96	·	·	-1	·	i
CC(C)Cn1c(CN2CCN(c3ccccc3F)CC2)nc2c1c(=O)[nH]c(=O)n2C	0.98	99	·	·	-2	-1.3	i
CN(C)C(=O)Cn1nc(-c2ccccc2)c2ccccc2c1=O	0.96	100	-117	85	2	-0.9	i
CCOc1ccc(CNc2ccc(CNc3ncn[nH]3)cc2)cc1	0.98	99	·	·	2	·	i
Cc1cccc(NNC(=O)C(=O)NNc2cccc(C)c2)c1	0.99	96	·	·	·	·	i
Cc1ccc(C)c2c1[nH]c1ccc([N+](=O)[O-])cc12	0.93	99	0	70	10	1.0	i
O=C1C2C(C(=O)N1/N=C/c1cccc([N+](=O)[O-])c1)C1C=CC2C12CC2 (configuration not stated)	0.88	111	-7	27	-5	-1.0	i
COCCCNC(=O)CCc1c(C)nc2c(-c3ccc(F)cc3)c(C)nn2c1C	1.1	93	·	·	·	·	i
N#Cc1c(-c2ccc3c(c2)OCO3)csc1N	0.73	-151	-13	92	-6	-2.5	i
COc1ccc(/C(N)=N/OC(=O)CN(C)S(=O)(=O)c2ccc(C)cc2)cc1	0.97	93	·	·	2	·	i
O=C(O)c1ccc(N2CC3CC(C2)c2cccc(=O)n2C3)c(NS(=O)(=O)c2cccc(C(F)(F)F)c2)c1 (configuration not stated)	0.91	99	·	·	0	·	i
CN(C(=S)Oc1ccc(C(=O)Nc2ccccc2)cc1)c1ccccc1	0.8	114	·	·	7	0.3	i
CC(=O)Oc1ccc(C(=O)NCCc2ccccc2)cc1	1	105	·	·	-4	·	i
COc1cc(C(=O)NC(=S)Nc2ccc3oc(=O)ccc3c2)cc(OC)c1OC	0.76	101	·	·	20	-2.6	i
Cc1ccnc(NC(=O)C2CCCN(S(=O)(=O)c3cnc[nH]3)C2)c1 (configuration not stated)	1.2	102	·	·	-10	-0.9	i
CC(NC(=O)COC(=O)CCc1ccc(S(=O)(=O)N2CCOCC2)cc1)C1CC2CCC1C2 (configuration not stated)	1	98	46	97	-7	0.8	i
Cc1cc(Nc2ccc(F)cc2Cl)n2nc(C)nc2n1	1.2	125	·	·	-8	-3.4	i
Cc1cc(C)n(-c2ccc(C(=O)OCC(=O)Nc3ccc(S(=O)(=O)N4CCOCC4)cc3)cc2)n1	0.98	103	·	·	-10	-1.9	i
CN(C(N)=S)c1ccccc1	0.85	103	·	·	-2	-3.3	i
Cc1cc(C)nc(Nc2n[nH]c(-c3ccccc3N)n2)n1	0.95	104	·	·	·	·	i
NC(=O)c1ccc(Oc2ncc(C(F)(F)F)cc2Cl)cc1	0.98	102	·	·	2	·	i
O=C(CSC(=S)N1CCN(c2ccccc2)CC1)Nc1nc(-c2ccccc2)c(-c2ccccc2)o1	1.1	102	37	131	6	-0.9	i
COCc1cc(=O)[nH]c(-c2csc(C)n2)n1	0.96	103	·	·	·	·	i
CC(C)CCc1noc(CN2CCN(CC(=O)NC(C)C)CC2)n1	0.99	102	·	·	·	·	i
C/C(=C\C(=O)c1c(O)cc(C)oc1=O)N(C)C	·	100	-123	90	-7	·	·
Cc1ccccc1Cn1cnc2ccccc21	1	102	·	·	0	·	i
CCOC(=O)N1CCN(CCC(=O)Nc2cc(OC)ccc2OC)CC1	1	101	·	·	-5	·	i

3 entries out of the list, arranged by number of heavy atoms, descending:
Structure	HSV replic up primary fold	RGS16-Gao	Insulin prom inh	Insulin prom inh cell count	PKD1 inh	GALR2 ag	HSV replic up
O=C(CSC(=S)N1CCN(c2ccccc2)CC1)Nc1nc(-c2ccccc2)c(-c2ccccc2)o1	1.1	102	37	131	6	-0.9	i
Cc1cc(C)nc(Nc2n[nH]c(-c3ccccc3N)n2)n1	0.95	104	·	·	·	·	i
C/C(=C\C(=O)c1c(O)cc(C)oc1=O)N(C)C	·	100	-123	90	-7	·	·

Additional entries:
Structure	HSV replic up primary fold	RGS16-Gao	Insulin prom inh	Insulin prom inh cell count	PKD1 inh	GALR2 ag	HSV replic up
CC1=C[C@H]2OC(=O)[C@@H](C)[C@H]2C[C@@H]2[C@H]1C[C@@H](O)[C@@]2(C)O	0.84	99	·	·	·	·	i
O=C(C1CCN(S(=O)(=O)c2ccc(Br)s2)CC1)N1CCc2ccccc21	1.1	101	-26	99	3	0.2	i
O=C(CC12CC3CC(CC(C3)C1)C2)NC(Cc1ccccc1)C(=O)O (configuration not stated)	0.97	97	·	·	-6	·	i
CCCCCCn1c(N2CCC(C)CC2)nc2c1c(=O)[nH]c(=O)n2C	0.91	99	·	·	4	1.8	i
Cc1ccc(-c2noc(CCCOc3ccc(Cl)cc3Cl)n2)cc1	0.77	103	-8	101	-5	-2.0	i
CN(C(=O)CC1C(=O)NCCN1CC1CCCCC1)C1CCOCC1 (configuration not stated)	0.86	91	·	·	·	·	i
O=C(c1ccc(Cl)cc1)N(c1ccccn1)C1CCCCC1	1.1	108	21	80	-7	·	i
COc1ccc(N2C(=O)CC(Sc3nc4ccccc4s3)C2=O)cc1OC (configuration not stated)	1	104	7	89	-7	·	i
COC(=O)C1=C(C)NC2=C(C(=O)CC(C)(C)C2)C1c1ccccn1 (configuration not stated)	0.97	101	-341	54	1	0.0	i
C=C1CCN(CC(=O)OC)S(=O)(=O)c2ccccc21	1.1	102	·	·	·	·	i
O=c1c2ccccc2c(-c2ccccc2)nn1-c1cc(Cl)cc(Cl)c1	0.98	97	·	·	·	·	i
CCOC(=O)C(NC(=O)CC(C)C)(Nc1sc(C)c(CC)c1C#N)C(F)(F)F (configuration not stated)	0.99	68	-91	58	4	0.3	i
COC(=O)c1sccc1NC(=O)c1ccc2c(c1)OCO2	1	106	11	26	9	-1.9	i
O=C(CN1C(=O)C(=O)c2ccccc21)NCCc1ccccc1	0.93	97	-22	197	-3	·	i
Cc1cc(C)n2nc(C(=O)Nc3cccc(S(=O)(=O)N4CCCC4)c3)nc2n1	0.92	103	·	·	·	·	i
CC1(C)CC(=O)C2=C(C1)Oc1ncn(CCO)c(=N)c1C2c1ccccc1 (configuration not stated)	0.97	109	18	96	-6	-0.8	i
COc1ccc(CN(C(=O)CSc2nnc(-c3ccccc3F)o2)c2ccc(F)cc2)cc1	1.1	109	-16	108	-16	-0.1	i
Cc1ccc(-c2nnc(CCC(=O)NCC3C4CC5CC(C4)CC3C5)o2)s1 (configuration not stated)	1.1	104	·	·	-1	·	i
CC1=C(C(=O)NCCc2ccc(C)cc2)C2(CCC(C)CC2)OC1=O (configuration not stated)	0.92	108	-46	114	4	-0.3	i
Cc1csc(SCC(=O)NC(=O)NC2CCCC2)n1	0.85	91	·	·	-10	·	i
COCCCNC(=O)CCN1C(=O)COc2ccccc21	1.1	38	-46	138	-4	0.1	i
Cc1cc(C[n+]2cc(Br)ccc2N)c2ncccc2c1	0.89	97	·	·	·	·	i
CCOCCCNC(=O)c1c[nH]c2ccc(OCC)cc2c1=O	0.84	104	·	·	·	·	i
N=c1sccn1CC(=O)NC(=O)NC1CCCC1	1	119	88*	93*	-10	-0.8	i
CCSc1nc(N)c2c(C)c(C)sc2n1	0.98	97	78*	139*	4	0.2	i
CCCOc1ccc(N2C(=O)CC(N(CCCO)C(=O)CC)C2=O)cc1 (configuration not stated)	1.1	106	·	·	·	·	i
Cc1ccc(CNC(=O)c2ccc(OCC3CCCO3)cc2)cc1 (configuration not stated)	1.1	102	19	110	-13	-1.8	i
CN(C)S(=O)(=O)N(CC(=O)Nc1ccc(F)c(F)c1)c1ccccc1	0.95	98	-35	111	6	-1.9	i
Cc1ccc(S(=O)(=O)N2CCN(c3ccnc4cc(Cl)ccc34)CC2)cc1C	0.91	104	·	·	-3	·	i
Cc1ccc(C2C3=C(Nc4[nH]n(-c5ccccc5)c(=O)c42)c2ccccc2C3=O)cc1 (configuration not stated)	0.94	109	11	148	0	0.5	i
CC(=O)OCc1nc2ccccc2s1	1.2	100	-14	166	0	-6.7	i
Cc1ccc(OC(=S)Nc2ccccc2)c(C)c1	1.1	104	69	118	-4	-2.3	i
CC(NC(=O)COC(=O)c1ccco1)c1ccccc1 (configuration not stated)	1	97	38	71	2	-1.1	i
CN(C(=O)CSc1nnnn1-c1ccccc1)C1CCS(=O)(=O)C1 (configuration not stated)	0.97	102	0	50	-2	·	i
Cc1cccc(C(=O)Nc2cccc(OC(=O)c3cccc(C)c3)c2)c1	0.94	112	13	111	-12	-1.6	i
O=C(c1ccccc1)c1cccn1CC(=O)N1CCCCCC1	1.1	100	·	·	8	-1.6	i
C=CCn1c(COc2ccc(Cl)cc2)nnc1SCC(=O)N/N=C/c1ccccc1	1	99	-36	103	4	-1.8	i
CC(C)C(=O)Nc1ccccc1C(=O)N/N=C/c1ccc([N+](=O)[O-])cc1	0.9	96	·	·	-1	-0.5	i
OC(CNCc1ccco1)Cn1c2ccccc2c2ccccc21 (configuration not stated)	0.55	100	-37	82	-5	-1.5	i
O=C1NC(c2cccnc2)C(C(=O)c2cccs2)C(O)(C(F)(F)F)N1 (configuration not stated)	0.98	102	3	94	-5	-1.0	i

Complete entries, looked up by structure.
Listed for `CN(C(=O)CSc1nnnn1-c1ccccc1)C1CCS(=O)(=O)C1` (configuration not stated) → HSV replic up primary fold: 0.97; RGS16-Gao: 102; Insulin prom inh: 0; Insulin prom inh cell count: 50; PKD1 inh: -2; GALR2 ag: ·; HSV replic up: i
Listed for `CC(C)C(=O)Nc1ccccc1C(=O)N/N=C/c1ccc([N+](=O)[O-])cc1` → HSV replic up primary fold: 0.9; RGS16-Gao: 96; Insulin prom inh: ·; Insulin prom inh cell count: ·; PKD1 inh: -1; GALR2 ag: -0.5; HSV replic up: i

(cont.)
Structure	HSV replic up primary fold	RGS16-Gao	Insulin prom inh	Insulin prom inh cell count	PKD1 inh	GALR2 ag	HSV replic up
Cc1nnc(SCC(=O)c2c(N)n(C)c(=O)n(C)c2=O)n1Cc1ccccc1	1.1	104	·	·	-11	-0.6	i
Cc1ccc2[nH]c(=O)c(CNC(C)C)cc2c1	0.94	98	·	·	-2	-1.9	i
CO/N=C/c1ccc(Oc2ccc(C)cc2)c([N+](=O)[O-])c1	1	96	·	·	7	·	i
CC(C)(C)NC(=S)NCc1cccnc1	0.97	101	0	62	-11	-0.1	i
Cc1cccc2cc(C#N)c(SCc3nnc(-c4ccccc4[N+](=O)[O-])o3)nc12	0.82	48	-11	97	2	-2.3	i
CCOc1cc2c(cc1OCC)C(c1ccccc1)N(c1ccccc1)C(=O)C2 (configuration not stated)	0.74	112	28	103	-5	0.4	i
Cc1cc(O)c(-c2cc(C(=O)Nc3cccnc3)[nH]n2)cc1C	0.85	89	·	·	·	·	i
O=C(CSCc1ccc(Cl)cc1)Nc1ccccc1C(=O)N1CCOCC1	0.97	117	7	78	-5	-3.3	i
